High-throughput results deposited in PubChem BioAssay by Johns Hopkins Ion Channel Center.
KCNQ2 inh = KCNQ2 channel blockers in CHO-K1 cells – cell-based, FluxOR thallium flux, B-score, primary screen (AID 2156); 1.1% of 310,000 active; 20 min; active compounds read low; only compounds with negative scores are shown here; some inactives read as strong as hits; B-score at 10 µM;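 active = fluorescence ratio B-score at most minus 3 library SDs, with starting brightness B-score within 2 library SDs, cut at about -5.5 in these data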
Target sequence (O88943 whole entry, looked up): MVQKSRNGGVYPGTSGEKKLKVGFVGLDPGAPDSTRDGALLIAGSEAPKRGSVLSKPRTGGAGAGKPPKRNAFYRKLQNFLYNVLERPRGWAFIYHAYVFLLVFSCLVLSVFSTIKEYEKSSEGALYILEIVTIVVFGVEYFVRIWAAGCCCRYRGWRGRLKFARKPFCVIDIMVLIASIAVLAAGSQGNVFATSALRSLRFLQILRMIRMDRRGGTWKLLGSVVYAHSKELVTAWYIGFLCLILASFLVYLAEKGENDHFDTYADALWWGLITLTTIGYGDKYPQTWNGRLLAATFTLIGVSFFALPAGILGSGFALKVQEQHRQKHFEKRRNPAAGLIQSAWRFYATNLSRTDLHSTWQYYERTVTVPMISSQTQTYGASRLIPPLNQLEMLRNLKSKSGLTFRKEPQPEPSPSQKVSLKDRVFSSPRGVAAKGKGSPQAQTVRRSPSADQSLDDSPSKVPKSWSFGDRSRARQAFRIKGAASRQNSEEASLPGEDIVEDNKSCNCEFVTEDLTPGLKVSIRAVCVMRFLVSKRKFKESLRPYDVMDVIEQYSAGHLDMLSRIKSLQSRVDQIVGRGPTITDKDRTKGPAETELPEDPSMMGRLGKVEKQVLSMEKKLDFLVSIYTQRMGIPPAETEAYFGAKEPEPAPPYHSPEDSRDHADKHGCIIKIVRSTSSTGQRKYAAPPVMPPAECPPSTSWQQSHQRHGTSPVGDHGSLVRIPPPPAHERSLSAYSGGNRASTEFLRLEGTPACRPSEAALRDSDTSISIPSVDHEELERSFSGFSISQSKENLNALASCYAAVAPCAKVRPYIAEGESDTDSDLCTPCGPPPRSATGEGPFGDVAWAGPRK
KCNQ2 inh baseline = further read-out of KCNQ2 inh, marked with its call; B-score; measured here: initial fluorescence intensity artifact check;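 brightness before thallium and not channel activity; 0 = typical well and far values either way flag optical interference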
The depositor's hits bear a star; i = inactive.

no. | Compound | KCNQ2 inh | KCNQ2 inh baseline
1 | COc1ccc(OC)c(S(=O)(=O)N2CCC(C(=O)Nc3cccc(C)c3)CC2)c1 | i | -0.4
2 | C/C(=N\OC(=O)c1ccccc1)c1c(C)nc2cc(C)ccn12 | i | -0.25
3 | CC1=CCC(C(=O)N/N=C/c2cccs2)C(c2ccc(F)cc2)C1 (stereo not given) | i | 1.1
4 | CCC(=O)c1cc2c(cc1NC(=O)C(C)C)OCCO2 | i | 1.4
5 | CC(=O)Nc1ccc(S(=O)(=O)NC(=O)C23CC4CC(CC(C4)C2)C3)cc1 | i | -0.55
6 | CC(=O)c1cccc(NC(=O)Cc2cccs2)c1 | i | -0.84
7 | CCn1c(C(O)c2ccc3c(c2)OCO3)nc2ccccc21 (stereo not given) | i | 0.82
8 | O=C(NCc1ccncc1)C1COc2ccccc2O1 (stereo not given) | i | -0.13
9 | Cc1[nH]c(-c2ccc(F)cc2)cc1C(=O)N1CCN(c2ccc(Cl)cc2)CC1 | i | 0.71
10 | CCOC(=O)/C=C/C(=O)Nc1ccc(S(=O)(=O)Nc2c(C)cc(C)cc2C)cc1 | i | 0.66
11 | O=C(N/N=C/c1cccs1)c1cc(C2CC2)nc2ccccc12 | i | 0.55
12 | COc1ccc(OC)c(S(=O)(=O)N2CCN(c3ccccn3)CC2)c1 | i | 0.82
13 | CCS(=O)(=O)N1Cc2ccccc2CC1C(=O)OCC(=O)Nc1ccc(C)cc1 (stereo not given) | i | 0.82
14 | CCc1c(C)c2ccc(O)c(CN(C)C)c2oc1=O | i | -1.7
15 | CN(C)S(=O)(=O)c1ccc(C(=O)Nc2ccccc2F)cc1 | i | 0.45
16 | COc1ccc(CN(C(=O)c2cc3ccccc3oc2=O)C2CCCCC2)cc1OC | i | 2.9
17 | S=C(Nc1ccc(Br)cc1Cl)N1CCC2(CC1)OCCO2 | i | -1.2
18 | COCCNC(=O)CN(C(=O)CCC(=O)Nc1cc(C)on1)c1ccccc1C | i | -0.2
19 | COc1ccc(OC)c(NC(=O)C(Sc2ccccc2)c2ccccc2)c1 (stereo not given) | i | 2.3
20 | Cc1ccccc1OCCCC(=O)Nc1ccc(S(=O)(=O)Nc2onc(C)c2C)cc1 | i | 0.97
21 | O=C(CNC(=O)c1cccs1)N/N=C/c1ccc(O)cc1O | i | 0.96
22 | O=C(NCC(=O)N(Cc1cccs1)C(C(=O)NC1CCCC1)c1ccco1)c1cccs1 (stereo not given) | i | -0.72
23 | CNC(=S)N(CCCN(C)C)Cc1cc2cc3c(cc2[nH]c1=O)OCCO3 | i | -0.07
24 | Cc1ccc2[nH]c(=O)c(CN(Cc3ccco3)S(=O)(=O)c3c(C)ccc4nsnc34)cc2c1 | i | -3.2
25 | Cc1ccc(/C=C/C(=O)c2ccc(N3CCOCC3)cc2)s1 | i | 1.3
26 | CS(=O)(=O)N1CCc2cc(S(=O)(=O)N3CCCCC3)ccc21 | i | 1.5
27 | C=CCn1c(C)cc(C(=O)CSc2nnc3c(Cl)cc(Cl)cn23)c1C | i | 3.6
28 | CN(C)CCN(CC1CCCN(Cc2ccccc2F)C1)C(=O)c1ccc(F)cc1 (stereo not given) | i | -2
29 | Clc1ccccc1CNCC1CCCO1 (stereo not given) | i | -0.01
30 | COc1ccc(/C=C2\N=C(c3c(-c4ccccc4)noc3C)OC2=O)cc1OC | i | 1.2

Entries of single compounds, quoted from the list.
O=C(CNC(=O)c1cccs1)N/N=C/c1ccc(O)cc1O reads KCNQ2 inh = i; KCNQ2 inh baseline = 0.96
O=C(NCC(=O)N(Cc1cccs1)C(C(=O)NC1CCCC1)c1ccco1)c1cccs1 (stereo not given) reads KCNQ2 inh = i; KCNQ2 inh baseline = -0.72

Continued:
no. | Compound | KCNQ2 inh | KCNQ2 inh baseline
31 | Cc1ccc(N/C=C(/C#N)c2ccsc2)cc1 | i | 1.9
32 | COC(=O)c1c(C(=O)NCc2ccccc2)ncn1CC(O)COc1ccccc1 (stereo not given) | i | -0.73
33 | CC(C(=O)N=Nc1c(O)n(C)c2ccc(Br)cc12)n1cnc2ccccc2c1=O (stereo not given) | i | 0.68
34 | O=C(CCS(=O)(=O)Cc1ccccc1)N1CCc2ccccc2C1 | i | 0.21
35 | CCN(CC(=O)Nc1ccccc1C(F)(F)F)C(=O)c1cccc(S(=O)(=O)N2CCN(C)CC2)c1 | i | 1.6
36 | C[C@@H](C(=O)Nc1ccc2ccccc2c1)[C@H]1C[C@]1(C)[C@H](NC(=O)OCc1ccccc1)c1ccccc1 | -5.9* | 0.59*
37 | O=C(COC(=O)c1cncc(Br)c1)NCc1ccc(Cl)cc1 | i | 1.5
38 | CCOC(=O)N1CCC(NC(=O)c2ccc3c(c2)N(Cc2ccccc2)CCS3)CC1 | i | -0.49
39 | O=C(Nc1cc(Br)ccc1O)c1cnn2c(C(F)F)cc(C3CC3)nc12 | i | 0.75
40 | COc1ccc(CC(=O)Nc2nc(-c3cc(OC)ccc3OC)cs2)cc1 | i | -0.26

Laid out differently: entries from further up
37) O=C(COC(=O)c1cncc(Br)c1)NCc1ccc(Cl)cc1
  KCNQ2 inh = i; KCNQ2 inh baseline = 1.5

39) O=C(Nc1cc(Br)ccc1O)c1cnn2c(C(F)F)cc(C3CC3)nc12
  KCNQ2 inh = i; KCNQ2 inh baseline = 0.75

32) COC(=O)c1c(C(=O)NCc2ccccc2)ncn1CC(O)COc1ccccc1 (stereo not given)
  KCNQ2 inh = i; KCNQ2 inh baseline = -0.73

36) C[C@@H](C(=O)Nc1ccc2ccccc2c1)[C@H]1C[C@]1(C)[C@H](NC(=O)OCc1ccccc1)c1ccccc1
  KCNQ2 inh = -5.9*; KCNQ2 inh baseline = 0.59*

The list continues.
no. | Compound | KCNQ2 inh | KCNQ2 inh baseline
41 | CCn1cc(C(=O)NCCC(C)C)c(=O)c2cc(S(=O)(=O)N3CCCCC3)ccc21 | i | 0.65
42 | O=C(NCC(=O)N1CCN(c2ccccc2O)CC1)c1cccs1 | i | 1.1
43 | COc1cc(SC)ccc1C(=O)Nc1ccc(C)cc1 | i | 1.2
44 | Brc1ccccc1-c1nnc(COc2ncnc3ccccc23)o1 | i | 1.6
45 | C/C(=N\NC(=O)c1ccc(Cl)cc1)c1ccc2[nH]ccc2c1 | i | -0.2
46 | O=c1c2c(nc3cc(-c4ccccc4Cl)[nH]n13)CCS2 | i | -1.4
47 | CCCCn1c(N)c(N(Cc2ccccc2OC)C(=O)c2ccc(N3CCCC3=O)cc2)c(=O)[nH]c1=O | i | 0.01
48 | O=C(NCC(c1ccc(F)cc1)N1CCOCC1)c1cc(F)c(F)c(F)c1F (stereo not given) | i | -1.7
49 | CCN1CCN(Cc2c(OC)ccc3ccccc23)CC1 | i | -0.04
50 | CC1C(c2ccccc2)N(C)CCC12NC(=O)NC2=O (stereo not given) | i | -2.1
51 | COCCN(CC(=O)NCC1CCCO1)C(=O)CCC(=O)Nc1cc(C)ccn1 (stereo not given) | i | -0.27
52 | CCOc1cccc(Oc2ccc(C(F)(F)F)cn2)c1 | i | 0.74
53 | Cc1cc(C(F)F)n2nc(C(=O)Nc3cccc(C(F)(F)F)c3)nc2n1 | i | 0.23
54 | CCOC(=O)C(CSCC(=O)c1ccc(Br)cc1)NC(=O)OC(C)(C)C (stereo not given) | i | -1.8
55 | CCOC(=O)N1CCN(CC(=O)Nc2ccc(Oc3ccccc3)cc2)CC1 | i | 0.26
56 | C=CCN(CC(=O)Nc1c(C)cccc1CC)C(=O)SCCC | i | -0.92
57 | CC(=O)NS(=O)(=O)c1ccccc1 | i | 1.5
58 | CCOc1ccccc1OCc1nn2c(-c3ccc(C)cc3)nnc2s1 | i | 0.14
59 | COc1ccc(OC(=O)NCCc2ccccc2)cc1 | i | 0.51
60 | Cc1ccc(NC(=O)C2CCN(c3cnccn3)CC2)cc1 | i | 0.38
61 | CSc1nc2c(c(=O)[nH]1)C(c1ccc(C(F)(F)F)cc1)CC(=O)N2 (stereo not given) | i | 0.2
62 | S=C(Nc1ccc(Br)cc1Cl)N1CCCC1 | i | -0.36
63 | O=C(CCCNC(=O)/C(=C/c1ccc(Br)cc1)NC(=O)c1ccccc1)OCc1ccccc1 | i | -1.5
64 | COc1cccc(-n2nnnc2SCC(=O)Nc2ccc(C(C)=O)cc2)c1 | i | 2.5
65 | Cc1ccc(NC(=O)COC(=O)Cc2ccsc2)cc1S(=O)(=O)N1CCOCC1 | i | -1.5
66 | COc1ccc([N+](=O)[O-])cc1NC(=O)Cc1noc2ccc(C)cc12 | i | 0.51
67 | O=C(Nc1ccc(OC(F)(F)C(F)F)c(NC(=O)c2ccc(F)cc2)c1)c1ccc(F)cc1 | i | -0.01
68 | O=C(N/N=C/c1cccc(Br)c1)c1ccc(N2CCCC2=O)cc1 | i | -1.6
69 | O=[n+]1c2c(n([O-])c3cc(F)c(N4CCCC4)cc31)CCCC2 | i | 20
70 | Cc1oc(C(=O)O)cc1CSCc1ccoc1C(=O)O | i | 0.86
71 | C=CCN(CC=C)CC(=O)Nc1cccc(Oc2cnccn2)c1 | i | 0.04
72 | COc1cccc(-n2ccnc2SCC(=O)N2CCCc3ccccc32)c1 | i | 2.2
73 | COCCOC1CCN(Cc2cn(Cc3ccccc3)nc2-c2cc3ccccc3o2)CC1 | i | 2.2
74 | Cc1cccc(/C=C2/C(=O)/C(=C/c3ccccc3C)C3CCC2N3C)c1 (stereo not given) | i | -0.02
75 | COc1ccccc1-n1cnc2sc(C)c(C)c2c1=O | i | 0.19
76 | Cc1ccc2c(c1)C(c1ccccc1)N(C(=O)c1c(F)cccc1Cl)CC(=O)N2 (stereo not given) | i | 0.02
77 | COC(=O)COc1ccc(S(=O)(=O)NCc2cccnc2)cc1 | i | -0.38
78 | COc1ccccc1C(=O)NC(=Nc1nc2ccccc2o1)NC(=O)c1ccccc1OC | -14* | -1.7*
79 | Cc1ccc(C(=O)OCC(=O)Nc2ncc(C(F)(F)F)cc2Cl)cc1NC(=O)c1ccco1 | i | 2.2
80 | Cc1sc2ncnc(Oc3ccc(-n4ccnc4)cc3)c2c1C | i | -0.9
81 | CCc1ccc(CN(C)C(=O)CCc2nc3ccccc3n(-c3ccc(OC)cc3)c2=O)cc1 | i | 0.02
82 | CN(C)S(=O)(=O)c1ccc2[nH]cc(/C=C/c3nc4ccccc4c(=O)n3-c3ccccc3)c2c1 | i | 1.2
83 | COc1ccc(C(CC(=O)NCc2ccccc2)Sc2n[nH]c(-c3ccc(Cl)cc3)n2)cc1 (stereo not given) | i | 0.21
84 | Cc1ccc2c(c1)NC(=O)C(CC(=O)NCCN(CC(C)C)CC(C)C)O2 (stereo not given) | i | 1.6
85 | COc1ccccc1/C=C/C=C(\C#N)C(=O)NC(C)c1ccccc1 (stereo not given) | i | -2.1
86 | Cc1cc(NCCO)nc(N2CCOCC2)n1 | i | 1
87 | COc1ccc(CNC(=O)CN(Cc2cccs2)C(=O)CCC(=O)Nc2ccccn2)cc1 | i | -0.96
88 | Cc1cc2c(c(=O)n1Cc1cccnc1)C(c1ccc(F)cc1)C(C#N)=C(N)O2 (stereo not given) | i | -1.7
89 | COc1ccc(S(=O)(=O)N(C)C)cc1NCC(=O)Nc1cccc2ccccc12 | i | -0.18
90 | Cc1cc(C)n(-c2c(F)c(F)c(CN3CCCCC3)c(F)c2F)n1 | i | -0.01

Continued.
no. | Compound | KCNQ2 inh | KCNQ2 inh baseline
91 | Cc1ccc(-n2c(-c3ccco3)nc3nc4ccccc4nc32)cc1F | i | 1.5
92 | CC(C)(O)c1[nH]c2ccc(C#N)cc2c1C(C)(C)O | i | 0.19
93 | Cc1cc(C)cc(OCCn2nnc3ccccc32)c1 | i | 0.02
94 | O=C(c1cccs1)N1CCCN(c2ncnc3scc(-c4ccccc4)c23)CC1 | i | -0.89
95 | CC(C)CN(C(=O)c1cc(=O)[nH]c2ccccc12)c1c(N)n(Cc2ccccc2)c(=O)[nH]c1=O | i | -0.39
96 | COC(=O)c1c(NC(=O)c2c(C)noc2C)sc2c1CCCCCC2 | i | -0.68
97 | CSc1ccccc1COC(=O)Nc1ccccc1C | i | 0.37
98 | COC(=O)c1c(C)[nH]c(O)c1C=Nc1ccc(Oc2ccccc2)cc1 | i | 0.19
99 | CC(C)C(c1nnnn1C1CCCCC1)N1CCc2ccccc21 (stereo not given) | i | -0.48
100 | O=C(CC1COc2ccccc2O1)NCc1ccccc1 (stereo not given) | i | -0.17
101 | COc1cccc(C(=O)COC(=O)CCC(=O)c2ccccc2)c1 | i | 0.09
102 | CC(=O)c1cccc(OCc2cc(C(=O)N(C)C(C)c3ccccn3)no2)c1 (stereo not given) | i | 1.3
103 | Cc1[nH]c2ccccc2c1/C=N/Nc1ccccn1 | i | -0.43
104 | CCOc1cccc(N2C(=O)CC(N(CCc3ccc(OC)c(OC)c3)C(=O)CC)C2=O)c1 (stereo not given) | i | -0.09
105 | CN(C)CCN1C(=O)C(=O)/C(=C(/O)c2ccc(S(=O)(=O)N3CCOCC3)cc2)C1c1ccc(F)cc1 (stereo not given) | i | 2
106 | Cc1nc2ccc(C(=O)Nc3ccc(N(C)C)cc3)cc2s1 | i | -0.79
107 | CCN(CC)c1ccc(C(=O)Nn2c(C)nc3ccccc3c2=O)cc1 | i | 4
108 | CSc1ccccc1NC(=O)c1ccccc1N(Cc1ccccc1)S(C)(=O)=O | i | 0.67
109 | Cc1ccc(NC(=O)Nc2cnccn2)cc1Cl | i | -0.57
110 | CCCCOCCCNC(=O)c1ccccc1OCC | i | 0.72
111 | Cc1nc(NC(=O)CN(C)S(=O)(=O)c2ccc(Br)cc2)sc1C | i | -0.33
112 | Cc1cc2ccccc2n1CCNC(=O)C(C)Oc1ccccc1 (stereo not given) | i | -0.77
113 | CC(=O)N1c2ccc(S(=O)(=O)N3CCC(C(=O)NCc4ccc(C)cc4)CC3)cc2CC1C (stereo not given) | i | 0.08
114 | O=C(NCCc1ccc(Cl)cc1)C1(c2ccccc2)CC1 | i | 0.89
115 | CCC(=O)N1CCc2cc(S(=O)(=O)CCC(=O)N3CCN(c4ccc(F)cc4)CC3)ccc21 | i | 1.6
116 | Cc1ccc(C)c(COC(=O)c2cc(S(=O)(=O)N3CCCCC3)ccc2N2CCOCC2)c1 | i | 0.01
117 | O=C(Cn1cnc2c(nc3n2CCCCC3)c1=O)Nc1cccc(C(F)(F)F)c1 | i | -0.44

The list is partial; rates above refer to the full screens.
